Assay outcomes from PubChem.
YjeE inh = displaces an ADP probe from E. coli YjeE (TsaE); 0.05% of 71,000 active; purified YjeE, fluorescence polarisation of a bound ADP probe; P0AF67; AID 605; Potency, µM; active = well fitted falling curve; inconclusive = weaker or top-dose-only fall, or a rising curve; inactive = flat or poorly fitted curve;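 note: top concentration of the series not given in the record; excess ADP was the control for the full effect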
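Purified YjeE (10 uM) with BODIPY Texas Red-labeled ADP probe (2 uM); compounds pin-transferred, 15 min at room temperature. Binding inhibition read as decreased fluorescence polarization; ADP titration as control.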
Bst PK mod = modulators of Bacillus stearothermophilus pyruvate kinase; partly purified Bacillus stearothermophilus pyruvate kinase, luminescence ATP production; ribose 5-phosphate activator present at AC10; Potency, µM; 1.2% of 51,000 active; AID 361; in the data active means potency below about 11 µM; inconclusive means mostly about 12 µM to 25 µM; inactive means weaker than that;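 the screen sought inhibitors and activators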;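 note: potency is the fitted concentration of half-maximal effect; scaled between full activation by ribose 5 phosphate and full inhibition by luteolin; about four in five hits inhibit and the cells do not say which; series up to 57 µM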
* marks the source's active call; other numbers are inactive results; i = inactive; ? = inconclusive; · = not tested or not shown. This is a subset. The share of hits here may be higher or lower than overall.

SMILES | YjeE inh | Bst PK mod
CCOC(=O)c1cc(-c2ccncc2)nc2c1c(C)nn2C | i | i
CCC1SC2=NC(C)=C(C(=O)OC)C(c3cccs3)N2C1=O (stereo not drawn) | i | >57
O=C(CSc1nnc(-c2ccc(S(=O)(=O)N3CCCC3)cc2)n1CC1CCCO1)NC1CC1 (stereo not drawn) | i | >57
CCn1cc(C(=O)N2CCCC2)c(=O)c2cc(S(=O)(=O)N(C)C)ccc21 | i | ·
CCn1c(=O)c(C(=O)CN2CCOCC2)c(N)n(Cc2ccccc2)c1=O | i | >57
CCOC(=O)c1[nH]c(C)c(CCC(=O)OC)c1C | i | >57
CC(=O)OC1CC(C)(C)N(OC(=O)c2ccc(N)cc2)C(C)(C)C1 | i | >57
Cc1noc(C)c1CSc1ncnc2sc3c(c12)CCC3 | i | >57
COC(=O)c1[nH]c(C)c(/C(O)=C2\C(=O)C(=O)N(CCN(C)C)C2c2ccco2)c1C (stereo not drawn) | i | >57
OC(c1cccnc1)c1cccs1 (stereo not drawn) | i | >57
CCOC(=O)/C(C#N)=C1/SC(CC)C(=O)N1c1ccc(C)cc1 (stereo not drawn) | i | >57
CC(=O)N1CCN(c2ccc(NCc3ccc4c(c3)OCO4)cc2)CC1 | i | >57
C=CCNC(=O)c1oc2ccc(S(=O)(=O)N(CC)CC)cc2c1C | i | >57
COc1ccc2oc(C(=O)C3CC3)c(NC(=O)CCCN3C(=O)c4ccccc4C3=O)c2c1 | i | ·
N#C/C(=C\c1ccc(O)c(O)c1)C(N)=O | i | ·
O=C1CCCc2[nH]nc(-c3cccnc3)c21 | i | >57
Cc1ccc(C(=O)Nc2ncc(Cc3ccccc3)s2)o1 | i | ?
CCn1c(C)nc2cc(C(=O)OC(C(F)(F)C(F)F)C(F)(F)C(F)F)ccc21 | i | ·
CCOc1ccc(OCC)c(Nc2cc(C)nc3nc(C)nn23)c1 | i | ·
O=C1C2C(C(=O)N1c1ccncc1)C1C=CC2C12CC2 (stereo not drawn) | i | >57
COC(=O)CN(c1ccccn1)S(=O)(=O)c1ccccc1 | i | >57
CNc1ccnc(-c2ccccc2CN(C)C)n1 | i | ·
COC(=O)n1ccc(C(=O)Nc2ccccc2F)n1 | i | >57
COC(=O)N1CCC2(CCCN(Cc3nccs3)C2)CC1 | i | ·
COCC(=O)Nc1sc2c(c1C(=O)OC)CCC(C)C2 (stereo not drawn) | i | >57
SMILES | YjeE inh | Bst PK mod
COc1cccc(N2CCN(CC(=O)c3c[nH]c4ccc(OC)cc34)CC2C)c1 (stereo not drawn) | i | >57
Cc1ccc(CNc2oc(-c3cccs3)nc2C#N)cc1 | i | >11
CCOc1cc(C(=O)NCc2nnc(SCC(=O)OC)n2C)cc(OCC)c1OCC | i | >57
O=C(CSC1=NCCS1)Nc1nc2c(s1)CCCC2 | i | >11
CCn1c(SCC(N)=O)nnc1-c1ccc(S(=O)(=O)N2CCN(C)CC2)cc1 | i | >57
O=C(Nc1ccc(SC(F)F)cc1)C1=COCCO1 | i | i
CCCCCCNS(=O)(=O)c1ccc(Cl)s1 | i | ?
COc1cccc(-c2cc(C(F)(F)F)nc(-n3cncn3)n2)c1 | i | >57
COc1ccccc1-n1c(=O)c2c3c(sc2n2c(SC)nnc12)CCC3 | · | ?
COc1cc(OC)c(-c2nn3c(-c4ccncc4)nnc3s2)cc1OC | i | >57
Cc1[nH]c2ccccc2c1C(=O)CN1CCC(C(N)=O)(N2CCCCC2)CC1 | i | >57
Oc1ccc(-c2csc(NCc3ccco3)n2)cc1 | i | i
O=c1c2ccccc2nc2c3ccccc3c(N3CCOCC3)nn12 | i | i
COc1cccc(C2NC(=O)NC(O)(C(F)(F)F)C2C(=O)c2cccnc2)c1OC (stereo not drawn) | i | ·
CCc1nnc(NC(=O)C2Cc3ccccc3CN2S(=O)(=O)c2cccs2)s1 (stereo not drawn) | i | >57
COC(=O)CN(c1ccccc1C)S(C)(=O)=O | i | ·
O=c1cc(-c2ccco2)oc2ccc(Cl)cc12 | i | ·
CC(C)n1nc(C(=O)NCCc2ccc(S(N)(=O)=O)cc2)c2ccccc2c1=O | i | >57
Cc1occc1-c1nnc(SCC(=O)c2cc3ccccc3oc2=O)o1 | i | >57
Cn1c(=O)cc(OCCCC(=O)NCc2ccc3c(c2)OCO3)c2ccccc21 | i | ·
C=CCn1c(SCC(=O)NC(=O)NC2CCCC2)nnc1C1CCCCC1 | i | >57
Clc1cccc(-c2ccc(/C=N/n3cnnc3)o2)c1 | i | ·
CC1(C)C(N(O)C(=O)Nc2ccccc2)N(c2cccc(Cl)c2)C(=O)N1O (stereo not drawn) | i | >57
COCCn1c(CN2CCC(Cc3ccccc3)CC2)nc2c1c(=O)n(C)c(=O)n2C | i | >57
CC(C)Cn1c(=O)c2c(nc3n2CCCN3CCc2ccccc2)n(C)c1=O | i | >57
SMILES | YjeE inh | Bst PK mod
Brc1cccc(-c2nnc3sc(CN4CCC5(CC4)OCCO5)cn23)c1 | i | >57
O=C(CNC1=NCCC1)c1ccc2c(c1)OCCO2 | · | >26
Cc1cccc(OCc2nc(C#N)c(NCc3ccc4c(c3)OCO4)o2)c1 | i | >57
O=c1cc(-c2ccccc2)[nH]n1-c1nc2ccccc2[nH]1 | i | ·
CCOc1ccc(Nc2nc3c(c(=O)[nH]2)CCC3)cc1 | i | >57
CCOC(=O)N1CCN(c2nc(C)c3c(n2)CCCC3=O)CC1 | i | >57
COc1ccc(NC(=O)c2coc3ccccc23)cc1OC | i | i
CCn1c(C(=O)N2CCCC(C(=O)NCCCc3ccccc3)C2)cc2sccc21 (stereo not drawn) | i | >57
CCn1cc(C(=O)NCCOC)c(=O)c2ccc(C)nc21 | i | >57
O=C(Nc1ccc(F)cc1)Nc1ccc(Cl)cn1 | i | >57
COc1cccc(C2CC(=O)N3CN(c4cccc(Cl)c4C)CSC3=C2C#N)c1OC (stereo not drawn) | i | ·
Cc1cc(C)cc(NC(=O)C2CCCN(c3nc(C)cc(C)n3)C2)c1 (stereo not drawn) | i | >57
Cc1oc2c(CN3CCOCC3)c(O)ccc2c(=O)c1-c1ccccc1 | i | >57
COc1cccc(CN(C(=O)c2cc3ccccc3oc2=O)C2CC2)c1 | i | >57
COc1ccc(Cc2nn3c(Cn4nnc5ccccc54)nnc3s2)cc1 | i | ·
COc1cccc(NC(=O)CCS(=O)(=O)c2cccs2)c1 | i | >57
COc1ccc(C2=C(C)CC(C)(C)NC2=O)cc1OC | i | >57
N#CC1=C(SCC(=O)c2cc3ccccc3oc2=O)NC(=O)C(C#N)C12CCCC2 (stereo not drawn) | i | >57
Cc1nnc(SCC(=O)c2cc(C)n(-c3c(C)n(C)n(-c4ccccc4)c3=O)c2C)s1 | i | >57
C=CCOC(=O)CN1C(=O)c2ccccc2C1=O | i | ·
O=C(NC1CCS(=O)(=O)C1)c1c(NC(=O)C2COc3ccccc3O2)sc2c1CCCC2 (stereo not drawn) | · | >26
Cc1nnc2sc(-c3ccc(NC(=O)c4cccnc4)cc3)nn12 | i | >57
COCCNC(=O)CN(c1ccccc1OC)S(C)(=O)=O | i | ·
O=C1N(O)C2(C=CCCC2)/C(=N\O)C12CCCCC2 (stereo not drawn) | i | ·
CC(C)C(=O)Nc1nnc(CCc2nnc(NC(=O)C(C)C)s2)s1 | i | >57

Entries of single compounds, looked up by structure.
O=C(NC1CCS(=O)(=O)C1)c1c(NC(=O)C2COc3ccccc3O2)sc2c1CCCC2 (stereo not drawn) in the list: YjeE inh = ·; Bst PK mod = >26
CCOc1ccc(Nc2nc3c(c(=O)[nH]2)CCC3)cc1 in the list: YjeE inh = i; Bst PK mod = >57
COCCn1c(CN2CCC(Cc3ccccc3)CC2)nc2c1c(=O)n(C)c(=O)n2C in the list: YjeE inh = i; Bst PK mod = >57

Among those listed so far, these contain a CF3 group.
SMILES | YjeE inh | Bst PK mod
COc1cccc(-c2cc(C(F)(F)F)nc(-n3cncn3)n2)c1 | i | >57
COc1cccc(C2NC(=O)NC(O)(C(F)(F)F)C2C(=O)c2cccnc2)c1OC (stereo not drawn) | i | ·

(further entries)
SMILES | YjeE inh | Bst PK mod
O=P(CCNCc1ccco1)(c1ccccc1)c1ccccc1 | i | ·
CCCN(CCC)C(=O)Cn1c(=O)n(CCCCC(=O)NC2CCCC2)c(=O)c2ccccc21 | i | >57
CCOc1ccc(Nc2ncnc(N)n2)cc1 | i | ·
Nc1ncnc2c1ncn2[C@@H]1O[C@@H](COP(=O)(O)OP(=O)(O)OP(=O)(O)OP(=O)(O)OC[C@@H]2O[C@@H](n3cnc4c(N)ncnc43)[C@@H](O)[C@H]2O)[C@H](O)[C@@H]1O | 50µM* | ·
CCOC(=O)C1CSc2[nH]c(=O)sc2C1c1ccccc1 (stereo not drawn) | · | >11
Nc1sccc1C(=O)c1ccc(Cl)cc1 | i | >57
COC(=O)c1cc(Br)c(=O)n(Cc2cccnc2)c1 | · | >26
COc1cccc(-c2ccc3ncnc(N4CCN(C)CC4)c3c2)c1 | i | ·
Cn1c(=O)c2cn(-c3ccc4c(c3)OCCO4)cc2n(C)c1=O | i | 5.6*
O=C(c1cccc(N2C(=O)C3CC=CCC3C2=O)c1)N1CCN(c2ccccc2)CC1 (stereo not drawn) | i | >57
CCn1c(CC(=O)Nc2ccccc2F)nnc1SCC(=O)N1CCN(c2ccccc2)CC1 | i | >57
COc1ccc(C(C)=O)c(OC(=O)c2ccc(OC)c(OC)c2)c1 | i | >57
Cc1nnc2sc(-c3ccc(NC(=O)c4ccc(-c5ccc(Cl)cc5Cl)o4)cc3)nn12 | i | >57
Cc1nc(C)c(C(=O)NCc2ccccc2Cl)o1 | i | >57
CCOC(=O)c1ccc(NC(=O)Nc2ccc3c(c2)OCCO3)cc1 | i | ·
Cn1nnc2c(NCc3ccco3)nccc21 | i | >57
CCn1cc(C(=O)N2CC(C)CC(C)C2)c(=O)c2cc(S(=O)(=O)N3CCOCC3)ccc21 (stereo not drawn) | i | >57
O=C(c1ccsc1)N1CCN(C(=O)c2cccs2)CC1 | i | ·
C(CCc1nnc2c(n1)CCCC2)Cc1nnc2c(n1)CCCC2 | i | ·
COc1ccccc1NC(=O)c1ccc(CN2CCOCC2)cc1 | i | ·
CC(=O)N=c1cccc(NC(C)=O)n1O | i | ·
Cc1ccc(N2CC(C(=O)N3CCc4ccccc43)CC2=O)cc1 (stereo not drawn) | i | >57
c1ccn2c(Cc3nnc4ccccn34)nnc2c1 | i | >57
O=C(Oc1cccc2ccccc12)c1ccco1 | i | ·
COC(=O)c1ccccc1NC(=O)N1CCN(C(=O)c2ccco2)CC1 | i | >57
SMILES | YjeE inh | Bst PK mod
N#Cc1ccccc1-c1ccc2ncnc(NCCN3CCOCC3)c2c1 | i | ·
N#C/C(=C\c1ccco1)Sc1nc2ccccc2s1 | i | i
O=C(C1CCCN(S(=O)(=O)c2ccccc2)C1)N1CCN(c2ncccn2)CC1 (stereo not drawn) | i | >57
O=C(c1ccccn1)N1CCN(c2ccc(C(F)(F)F)cn2)CC1 | i | >57
CSc1nc2ccccc2n1C(=O)NC1CCCCC1 | i | >57
Cc1ccccc1NC(=O)CCN1CCN(C/C=C/c2ccccc2)CC1 | i | ·
COc1cccc(-n2nnc3c(=O)n(CC(=O)NC4CCCC4)cnc32)c1 | i | >57
O=C1CSC(c2ccccn2)N1c1cccc(Cl)c1 (stereo not drawn) | i | >57
CN(C)S(=O)(=O)c1cccc(-c2nnc(SCc3ccc4c(c3)OCCO4)o2)c1 | i | >57
CCN(CCO)C1CC(=O)N(c2ccccc2C)C1=O (stereo not drawn) | i | >57
CC1CCCN(C(=O)C2CCN(CC3CC=CCC3)CC2)C1 (stereo not drawn) | i | >57
CC1Cc2ccccc2N1C(=O)CSC1=NCCS1 (stereo not drawn) | i | >57
COc1cccc(-c2nc3n(n2)C(c2ccccc2Cl)C(C(N)=O)=C(C)N3)c1 (stereo not drawn) | i | ·
COc1nnc(-c2ccc(N3CCCCC3)c(N)c2)c2ccccc12 | i | ·
CCc1nnc(-n2nc(C)cc2-c2ccccc2)n1N | i | >57
CC(C)(C)n1nnnc1C(c1cccs1)N1CCCC2(CCCCC2)C1 (stereo not drawn) | i | >57
CCCCn1c(-c2ccsc2)nc2c1c(=O)[nH]c(=O)n2CCC | i | >57
CCCOC(=O)C1=C(C)NC2=C(C(=O)C(C(=O)OC)C(C)C2)C1c1ccc(N(C)C)cc1 (stereo not drawn) | i | >57
CCc1ccc2[nH]c(=O)c(CN(Cc3ccc(OC)cc3)Cc3nnnn3CCOC)cc2c1 | i | >57
CC(C)Oc1ccc(NC(=O)C2CCCNC2=O)cc1 (stereo not drawn) | i | >57
Cc1ccc(-c2nc3ncccn3c2NC2CCCC2)o1 | i | >57
CCCCCCCNS(=O)(=O)c1cccc2c(Cl)cccc12 | i | ·
COC(=O)c1ccc(NS(=O)(=O)c2ccc(OC)cc2)cc1 | i | >57
CC(=O)c1ccc(NC(=O)C2CCCNC2=O)cc1 (stereo not drawn) | i | >57
CCOc1ccc(OCC)c(NC(=O)CN2CCN(C(=O)c3ccco3)CC2)c1 | i | >11
Cc1ccnc(NC(=O)C2CCN(S(=O)(=O)c3cccc4nonc34)CC2)c1 | i | >11

Laid out differently: entries from further up.
Fields – YjeE inh | Bst PK mod
- CCc1nnc(-n2nc(C)cc2-c2ccccc2)n1N
    i | >57
- CC1CCCN(C(=O)C2CCN(CC3CC=CCC3)CC2)C1 (stereo not drawn)
    i | >57
- O=C(c1ccccn1)N1CCN(c2ccc(C(F)(F)F)cn2)CC1
    i | >57
